Screening results (PubChem)
Arbovirus inh: arbovirus infection inhibition; arbovirus infection cell-based antiviral screen; inhibition, % at 10 µM; 200,000 compounds, 0.37% hits; AID 1251;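 active = inhibition from about 30%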;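 also: bluetongue infection of BSR cells; cell survival read as ATP light after 72 h; 0% = infected wells without compound and 100% = uninfected wells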
Mtb betalactam: beta-lactam sensitization of Mtb H37Rv. M. tuberculosis H37Rv growth with meropenem, percent inhibition; hits of this screen are not shown here. inhibition, % at 25 µM. 330,000 compounds, 0.27% hits;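 active = about 74% or more and at least 40 points above the plate without the antibiotic, then above 30% in a dose series; inconclusive = first-round hits that could not be retested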;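 also: growth measured after seven days incubation then overnight dye step; 0% = bacteria only wells and 100% = bacteria with antibiotic; twin plates without the antibiotic show which effects depend on it; some results filed as inactive read as strong as hits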
RecA splice inh: inhibitors of M. tuberculosis RecA intein splicing; 290,000 compounds, 0.75% hits; inhibition, %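 (about 9 µM by stock and volumes)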; cell-free RecA intein splicing, fluorescence; in the data active = inhibition above about 30%; inconclusive = no clear call, values can overlap the other calls;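 also: 0% = vehicle wells and 100% = reference inhibitor control wells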
Target sequence (P9WHJ3 whole entry, looked up, canonical isoform): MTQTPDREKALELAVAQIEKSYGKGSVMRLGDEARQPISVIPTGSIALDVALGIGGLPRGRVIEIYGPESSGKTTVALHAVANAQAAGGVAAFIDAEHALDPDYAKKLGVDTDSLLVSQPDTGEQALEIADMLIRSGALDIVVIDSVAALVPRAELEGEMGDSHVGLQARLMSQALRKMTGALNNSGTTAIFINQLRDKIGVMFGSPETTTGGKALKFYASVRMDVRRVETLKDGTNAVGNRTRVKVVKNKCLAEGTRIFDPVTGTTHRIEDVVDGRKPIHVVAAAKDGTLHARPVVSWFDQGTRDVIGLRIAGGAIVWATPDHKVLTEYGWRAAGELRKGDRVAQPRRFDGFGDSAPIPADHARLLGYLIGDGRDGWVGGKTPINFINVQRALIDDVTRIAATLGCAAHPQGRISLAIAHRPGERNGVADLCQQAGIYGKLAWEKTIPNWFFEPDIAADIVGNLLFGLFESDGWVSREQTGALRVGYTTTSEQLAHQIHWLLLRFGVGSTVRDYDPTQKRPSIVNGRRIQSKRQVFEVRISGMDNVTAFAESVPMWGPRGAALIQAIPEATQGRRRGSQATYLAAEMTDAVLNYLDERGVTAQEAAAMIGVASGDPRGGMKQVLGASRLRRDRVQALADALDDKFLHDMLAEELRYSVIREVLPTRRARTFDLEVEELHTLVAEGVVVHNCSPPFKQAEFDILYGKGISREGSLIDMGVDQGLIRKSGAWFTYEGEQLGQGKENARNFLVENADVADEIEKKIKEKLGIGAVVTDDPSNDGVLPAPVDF
YopH inh: YopH (Yersinia) phosphatase inhibition; fluorescence Ex485/Em525; inhibition, %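 (about 10 µM by stock and volumes)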; 140,000 compounds, 0.16% hits; AID 898;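 active = inhibition of 50% or more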;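 also: controls were vehicle for no effect and minimum signal wells for full effect; inactives centre near -20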
Mtb H37Rv: M. tuberculosis H37Rv growth inhibitors, H37Rv strain (AID 1626). M. tuberculosis H37Rv growth inhibition; higher % means a stronger effect. inhibition, % at 10 µM; hits with a dose series show IC50 in µM. 220,000 compounds, 0.95% hits;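 active = confirmed in a dose series; inconclusive = inhibition above 80% but not taken into the dose series; inactive = below 80% or under 30% at every dose of the series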;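 also: bacteria incubated seven days before Alamar blue readout; 0% = bacteria only wells and 100% = bacteria with antibiotic wells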
Arbovirus inh repeat: recorded beside Arbovirus inh, whose call it bears; inhibition, %; measured here: 10K subset replicate screen; many hits read low in the repeat;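 first of two repeat runs on a subset; 0% = infected and 100% = uninfected wells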
* marks the source's active call; other numbers are inactive results; ? = inconclusive; . = no result given. This is a subset. The share of hits here may be higher or lower than overall.

Sample of the layout:
SMILES	Arbovirus inh	Mtb betalactam	RecA splice inh	YopH inh	Mtb H37Rv	others
CCOCC(O)CNC(=O)c1ccc(OC2CCN(C(=O)c3cccnc3)CC2)cc1 (configuration not stated)	.	-7	0.1	.	-8%
COc1ccc(OCCC(=O)OCC(=O)NCc2ccc(F)cc2)cc1	2	1	-3.0	.	2%
O=C(NCCN1CCOCC1)c1c(F)c(F)c(F)c(F)c1F	0	-9	1.0	-19	-8%
COCCN(C(=O)CSc1nnc(C)n1-c1ccccc1)c1c(N)n(Cc2ccccc2)c(=O)[nH]c1=O	1	-3	3.7	-25	-6%
CCN(CC)CCN1C(=O)c2oc3ccccc3c(=O)c2C1c1ccccc1 (configuration not stated)	7	3	-3.8	-19	-2%
Oc1ccccc1/C=N/n1c(COc2ccccc2)n[nH]c1=S	.	?	-1.1	.	.
Nn1c(SCc2ccc(F)cc2)nnc1-c1cccnc1	.	0	-2.0	.	1%
Cc1cc(O)c(C(=O)Nc2cccc(Cl)c2)c(=O)n1C	.	5	-2.6	.	.
Cc1ccn2c(Nc3ccccc3C)c(-c3cccnc3)nc2c1	-9	2	-1.6	.	3%
O=C(CCc1nc2ccccc2c(=O)[nH]1)NNC(=O)COc1ccccc1Cl	.	-7	-1.3	.	.
Cc1ccc(C(C)C)c(OCCN2CCc3ccccc3C2)c1	.	0	14	.	.
O=C1C2C3C=CC(CC3)C2C(=O)N1c1ccc(F)cc1 (configuration not stated)	.	-11	3.0	.	.
CCCc1nn2c(=O)cc(O)nc2s1	7	-3	-1.0	-29	-2%
CCn1nnc2cc(C(=O)Nc3cc(S(C)(=O)=O)ccc3Cl)ccc21	.	?	2.8	.	.
COc1cc(CNc2ncc(-c3ccc(Br)cc3)n2C)cc(OC)c1OC	.	8	-0.4	.	.
COc1ccc(NC2=C(C)C(=O)CC2)cc1	-10	11	0.6	-55	6%	Arbovirus inh repeat=-13
Cc1nc(NC(=O)C2CC3CCCC(C2)C3=O)sc1C (configuration not stated)	2	-4	-1.2	-15	1%
S=C(Nc1ccc(CN2CCCCC2)cc1)Nc1cccc(Cl)c1Cl	.	5	3.6	.	.
CCOC(=O)C1=C(C)N(CCCC(=O)O)C(=O)NC1c1ccccc1OS(=O)(=O)c1ccccc1[N+](=O)[O-] (configuration not stated)	.	1	-5.8	.	-5%
CC1(C)CC(=O)C2=C(C1)N(CCN1CCOCC1)C1=C(C(=O)CC(C)(C)C1)C2c1ccc(Cl)c([N+](=O)[O-])c1	2	-10	-0.7	.	4%
Cc1ccccc1NC(=O)c1cccc(S(C)(=O)=O)c1	8	-8	-3.4	.	-3%

All compounds of this part, from the first entry:
SMILES	Arbovirus inh	Mtb betalactam	RecA splice inh	YopH inh	Mtb H37Rv	others
CCOCC(O)CNC(=O)c1ccc(OC2CCN(C(=O)c3cccnc3)CC2)cc1 (configuration not stated)	.	-7	0.1	.	-8%
COc1ccc(OCCC(=O)OCC(=O)NCc2ccc(F)cc2)cc1	2	1	-3.0	.	2%
O=C(NCCN1CCOCC1)c1c(F)c(F)c(F)c(F)c1F	0	-9	1.0	-19	-8%
COCCN(C(=O)CSc1nnc(C)n1-c1ccccc1)c1c(N)n(Cc2ccccc2)c(=O)[nH]c1=O	1	-3	3.7	-25	-6%
CCN(CC)CCN1C(=O)c2oc3ccccc3c(=O)c2C1c1ccccc1 (configuration not stated)	7	3	-3.8	-19	-2%
Oc1ccccc1/C=N/n1c(COc2ccccc2)n[nH]c1=S	.	?	-1.1	.	.
Nn1c(SCc2ccc(F)cc2)nnc1-c1cccnc1	.	0	-2.0	.	1%
Cc1cc(O)c(C(=O)Nc2cccc(Cl)c2)c(=O)n1C	.	5	-2.6	.	.
Cc1ccn2c(Nc3ccccc3C)c(-c3cccnc3)nc2c1	-9	2	-1.6	.	3%
O=C(CCc1nc2ccccc2c(=O)[nH]1)NNC(=O)COc1ccccc1Cl	.	-7	-1.3	.	.
Cc1ccc(C(C)C)c(OCCN2CCc3ccccc3C2)c1	.	0	14	.	.
O=C1C2C3C=CC(CC3)C2C(=O)N1c1ccc(F)cc1 (configuration not stated)	.	-11	3.0	.	.
CCCc1nn2c(=O)cc(O)nc2s1	7	-3	-1.0	-29	-2%
CCn1nnc2cc(C(=O)Nc3cc(S(C)(=O)=O)ccc3Cl)ccc21	.	?	2.8	.	.
COc1cc(CNc2ncc(-c3ccc(Br)cc3)n2C)cc(OC)c1OC	.	8	-0.4	.	.
COc1ccc(NC2=C(C)C(=O)CC2)cc1	-10	11	0.6	-55	6%	Arbovirus inh repeat=-13
Cc1nc(NC(=O)C2CC3CCCC(C2)C3=O)sc1C (configuration not stated)	2	-4	-1.2	-15	1%
S=C(Nc1ccc(CN2CCCCC2)cc1)Nc1cccc(Cl)c1Cl	.	5	3.6	.	.
CCOC(=O)C1=C(C)N(CCCC(=O)O)C(=O)NC1c1ccccc1OS(=O)(=O)c1ccccc1[N+](=O)[O-] (configuration not stated)	.	1	-5.8	.	-5%
CC1(C)CC(=O)C2=C(C1)N(CCN1CCOCC1)C1=C(C(=O)CC(C)(C)C1)C2c1ccc(Cl)c([N+](=O)[O-])c1	2	-10	-0.7	.	4%
Cc1ccccc1NC(=O)c1cccc(S(C)(=O)=O)c1	8	-8	-3.4	.	-3%
CC(CN1CCCC1)OC(=O)c1cccc(F)c1 (configuration not stated)	.	0	-1.4	.	.
COc1ccc(N2CCC(CNC(=S)Nc3ccc(C)cc3C)C2)cc1 (configuration not stated)	.	55	5.0	.	?
COc1cc(C)ccc1OCc1cc(C(=O)N(Cc2nccn2C)C(C)C)no1	.	-6	-0.8	.	.
Cc1cccc(NC(=O)c2cccc(S(=O)(=O)N3CCCCC3)c2)c1	.	-2	5.8	.	.
O=C(NCc1ccccc1)c1onc(CSc2ccccc2)c1C(=O)NCC1CC1	.	-5	-0.4	.	-10%
O=C(CCCn1c(=S)[nH]c2cc3c(cc2c1=O)OCO3)NC1CC1	10	6	-1.6	-14	-4%
CCOC(=O)c1c(N)n(CCN2CCOCC2)c2nc3ccccc3nc12	-1	1	-75	-28	-6%
COc1ccc(CNC(=O)C2CCC(CNS(=O)(=O)c3cccc4nsnc34)CC2)cc1 (configuration not stated)	1	3	-2.3	-41	-1%
COc1ccc(-c2csc(NC(=O)Cc3cccc4ccccc34)c2C(=O)O)cc1	47*	.	4.4	.	5%
CC1(C)CC(=O)C2=C(C1)OC(N)=C([N+](=O)[O-])C2c1ccc(F)cc1 (configuration not stated)	.	-2	.	.	-1%
Cc1ccc(-c2nn3c(C)nnc3s2)cc1N	-4	-7	-3.3	-27	-6%
N#C/C(N)=C(/C#N)N=Cc1cccc(Cl)c1	.	0	-2.7	.	3%
COc1ccc(Nc2nc(-c3ccncc3)nc3ccccc23)cc1	.	-5	-2.1	.	.
COc1ccc(-c2cc(C(F)(F)F)n3nc(C(=O)Nc4c(C)n(C)n(-c5ccccc5)c4=O)c(Cl)c3n2)cc1	6	5	0.2	.	-2%
OC(Cc1nc2ccccc2[nH]1)c1ccccc1Cl (configuration not stated)	8	-3	-1.4	-40	9%
CSc1nc(C)c2c(n1)N(c1ccc(F)cc1)CC2	2	56	-3.2	-5	6%
CCOC(=O)CC(NC(=O)c1ccc(C)cc1)c1ccc(OC)cc1 (configuration not stated)	15	7	-0.9	.	-6%
O=C(O)CCCCCN1C(=O)CCC1=O	4	-12	1.1	-41	2%
CCOc1ccc(S(=O)(=O)N2CCCC(C(=O)N3CCN(CC)CC3)C2)cc1Cl (configuration not stated)	.	-1	1.3	.	.
C=C(C)CCOC(=O)C(CC(=O)O)NCc1ccco1 (configuration not stated)	.	-4	-0.8	.	-12%
CCCCn1c(N)c(N(CC(C)C)C(=O)C2CCCO2)c(=O)[nH]c1=O (configuration not stated)	.	-2	-0.9	.	.
O=C(NC1=NCCS1)c1cc2ccccc2o1	-2	0	-0.2	-30	-1%
C=CCNCC(=O)N1N=C(c2ccc3ccccc3c2)CC1c1ccc(OC)cc1 (configuration not stated)	-39	99	6.4	.	?
Cc1occc1C(=O)NC(C)CCc1ccccc1 (configuration not stated)	12	-3	0.2	-37	8%	Arbovirus inh repeat=11
N#Cc1c(N2C(=O)c3ccc(C(=O)O)cc3C2=O)sc2c1CCCC2	.	-6	0.5	.	.
CC1=C(C)CS(=O)N(S(=O)(=O)c2ccccc2)C1 (configuration not stated)	-3	0	0.1	4	-4%
CC(/C=N/NC(=O)c1ccc(Br)cc1)=C\c1ccccc1	-6	11	-1.8	11	-4%
CN(CC(=O)O)S(=O)(=O)c1ccc2c(c1)NC(=O)CC(=O)N2	-5	-14	-2.1	.	4%
CN(C(=O)CCn1c(=S)oc2ccccc21)C1CCCCC1	.	0	2.1	.	-1%
Carrying on.
SMILES	Arbovirus inh	Mtb betalactam	RecA splice inh	YopH inh	Mtb H37Rv	others
Cc1cc(C)nc(NC(=O)c2ccc([N+](=O)[O-])o2)n1	-1	0	13	-13	-5%
CCN1/C(=C/c2ccc3ccccc3[n+]2CC)C=Cc2ccccc21	-29	102	-1.4	10	?
CCOc1cc(C2/C(=C(/O)c3ccc(OC(C)C)cc3)C(=O)C(=O)N2CCCOC)ccc1O (configuration not stated)	-2	-6	-6.6	-39	-9%
COCCNC(=O)C1Nc2ccc(C(F)(F)F)cc2C2C=CCC12 (configuration not stated)	.	-5	-0.3	.	-8%
Cc1cc(NC(=O)CC(CN(C)S(=O)(=O)c2ccccc2)c2ccccc2)no1 (configuration not stated)	17	2	6.6	-33	8%	Arbovirus inh repeat=10
CCn1c(CO)nc2c1c(=O)[nH]c(=O)n2Cc1ccccc1	.	4	-1.8	.	.
CC(=O)Nc1ccc(-c2csc(NC(=O)Cc3cccc(F)c3)n2)cc1	.	70	8.2	.	.
CCCC(=O)Nc1nnc(S(=O)(=O)N(CC(C)C)c2ccccc2)s1	.	1	10	.	.
COc1cc(C(=O)OCC(=O)Nc2nnc(-c3ccccc3)o2)cc(OC)c1OC	.	-1	-0.6	.	.
O=C(OCC#CCSc1nnc(-c2ccncc2)o1)c1cccs1	0	99	1.4	-121	?
COc1ccccc1C(CC(=O)Nc1ccccc1C)c1ccc(OC(C)C)cc1 (configuration not stated)	-6	3	0.3	0	-5%
COc1cc(OC)cc(C(=O)OCC(=O)NCCCc2ccccc2)c1	.	2	-1.2	.	.
CCOc1ccccc1NC(=O)CSc1nnc2ccc(-c3ccccn3)nn12	.	-5	-2.1	.	.
Cn1cnnc1SCC(=O)Nc1cccc(S(=O)(=O)N2CCOCC2)c1	0	-10	0.8	.	0%
COc1ccc(-c2cc(C(=O)Nc3ccc(S(N)(=O)=O)cc3)c3ccccc3n2)cc1OC	.	8	-4.5	.	.
CCCOc1ccc(C2C(=O)N(C3CCCCCC3)CC(=O)N2Cc2ccco2)cc1OC (configuration not stated)	-18	-4	3.4	-3	2%
Brc1ccc(COc2ncnc3ccccc23)cc1	-22	0	0.5	.	-4%
O=C(Cc1c(Cl)cccc1Cl)NCCc1ccc(Cl)cc1	-8	5	4.3	-9	2%
CC1(C)CC(=O)/C(=C(/O)CCCN2C(=O)c3ccccc3C2=O)C(=NC(C)(C)C)C1	10	-7	0.4	.	-3%
COc1ccccc1C(=O)Nc1cc2cc(Cl)ccc2oc1=O	-3	10	4.4	-4	4%
COC(=O)c1ccc(/C=C2\CCn3c2nc2cc(C(=O)O)ccc2c3=O)cc1	.	1	0.5	.	.
CC1CCN(C(=O)C2CCN(S(=O)(=O)c3cccc4cccnc34)CC2)CC1	.	-4	-0.8	.	.
CN(C)S(=O)(=O)N(CC(=O)N1CCC(Cc2ccccc2)CC1)c1ccccc1	-5	-3	-3.8	.	0%
Cc1ccc(S(=O)(=O)N(CC(=O)N(C)C)c2cccc([N+](=O)[O-])c2)cc1	-3	4	-0.2	.	-1%
COC(=O)c1ccc(CSc2nc3ccccc3c(=O)n2CC(C)C)o1	-7	28	6.6	-63	6%
